# Mtb H37Rv = Mycobacterium tuberculosis H37Rv growth inhibition, cell based, confirmatory dose response (AID 1949); most inactive calls were filed without a number and no value below 0 was filed; M. tuberculosis H37Rv growth inhibition; inhibition, % at 10 µg/mL, or IC50 in µg/mL where a hit was titrated; 1.6% of 100,000 active;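 active means confirmed in a dose series; inconclusive means about 50% or more but not retested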;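 further: bacteria grown 7 days with compound before Alamar blue readout; 0% = untreated bacteria and 100% = reference antibiotic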
# * = called active by the depositor; i = inactive; ? = inconclusive. The list is partial; the hit share may differ from the screen's.
Molecule,Mtb H37Rv
O=C(Nc1ccc2oc(-c3ccccc3Cl)nc2c1)c1ncn[nH]1,38%
COC(C(=O)NC(C(C)C)C(C)C)c1ccccc1 (centres undefined),1%
COc1ccc2oc(=O)c(C(=O)C[n+]3ccc(C)cc3)cc2c1,i
CCOc1cc(C)c(Cl)cc1S(=O)(=O)n1ccc(C)n1,5%
COCCCN1C(=O)c2ccc(C(=O)O)cc2C1=O,i
COc1ccc(CCNC(=O)CSc2nnc(NC(C)=O)s2)cc1OC,i
COc1ccc(CNC(=O)CN(Cc2ccccc2F)S(=O)(=O)c2ccc(C)cc2)cc1,i
CC(=O)Nc1cccc(NC(=S)NCc2ccc(Cl)cc2)c1,i
CCc1ccc(NC(=O)c2ccccc2N(Cc2ccccc2)S(=O)(=O)c2ccccc2)cc1,i
Cn1c(=O)c([N+](=O)[O-])c(Nc2cccc(C(F)(F)F)c2)c2ccccc21,15µg/mL*
O=C(Cc1ccccc1)NC(=S)Nc1ccc(S(=O)(=O)Nc2ccccc2)cc1,i
Cc1ccc([N+](=O)[O-])cc1NC(=O)CSc1nnc(COc2c(C)cccc2C)o1,6%
Cn1nnc2cc(NC(=O)N3CCSCC3)ccc21,i
CCOC(=O)c1ccccc1N1C(=O)CC(Sc2ncccc2C(=O)O)C1=O (centres undefined),i
Cc1cc2nc(-c3cccc(NC(=O)Cn4cnc5c(=O)n(C)c(=O)n(C)c54)c3)sc2cc1C,i

# Reprinted from the part before: 7 compounds, then new ones.
Molecule,Mtb H37Rv
CCc1ccc(NC(=O)c2ccccc2N(Cc2ccccc2)S(=O)(=O)c2ccccc2)cc1,i
Cn1c(=O)c([N+](=O)[O-])c(Nc2cccc(C(F)(F)F)c2)c2ccccc21,15µg/mL*
O=C(Cc1ccccc1)NC(=S)Nc1ccc(S(=O)(=O)Nc2ccccc2)cc1,i
Cc1ccc([N+](=O)[O-])cc1NC(=O)CSc1nnc(COc2c(C)cccc2C)o1,6%
Cn1nnc2cc(NC(=O)N3CCSCC3)ccc21,i
CCOC(=O)c1ccccc1N1C(=O)CC(Sc2ncccc2C(=O)O)C1=O (centres undefined),i
Cc1cc2nc(-c3cccc(NC(=O)Cn4cnc5c(=O)n(C)c(=O)n(C)c54)c3)sc2cc1C,i
CCOC(=O)c1ccc(NC(=O)CC2C(=O)N(c3ccc(C)cc3)C(=O)N2Cc2ccc(C)cc2)cc1 (centres undefined),i
O=C(Cn1cc(C(=O)c2ccccc2)c2ccccc21)NCc1ccc2c(c1)OCO2,i
CCCCc1ccc(NC(=S)NCc2ccc(F)cc2)cc1,32%
O=C(NC(=S)Nc1ccc(Cc2ccncc2)cc1)c1ccc(Cl)cc1,1%
COc1cc(C(=O)N(C(C)C)C(C(=O)NC2CCCC2)c2ccccc2)cc(OC)c1OC (centres undefined),i
CCOC(=O)c1c(NC(=O)C2CCCN2S(=O)(=O)c2ccccc2)sc2c1CCCC2 (centres undefined),i
Cc1ccc(NC(=O)COc2c(C)cccc2C)c(Br)c1,24%
Cc1c(Cl)cccc1N1CC(C(=O)NCc2ccccc2)CC1=O (centres undefined),i
COC(=O)c1cn(C(=O)CCCc2ccccc2)c2ccccc12,i
Cc1cc(=O)oc2cc(OCC(=O)c3ccc4c(c3)CCCC4)ccc12,i
O=C(CSc1ncnc2c1sc1nc(N3CCOCC3)c3c(c12)CCCC3)N1CCCCC1,?
Cc1ccc(S(=O)(=O)N(CC(=O)NC2CC2)c2ccc(Br)cc2)cc1,i
S=C(NCc1ccccc1)N1CCCC1,i
COc1ccc(C)cc1NC(=S)Nc1ccc([N+](=O)[O-])cc1C,i
O=C(CC(c1ccccc1)S(=O)(=O)c1ccccc1)c1ccc(F)cc1 (centres undefined),22%

# Continuation.
Molecule,Mtb H37Rv
Cn1c(=O)c(/C=C/c2cccs2)nc2ccccc21,4%
CCC(C(=O)Nc1nc2c(s1)CCCC2)c1ccccc1 (centres undefined),i
CCCOc1ccc(-c2nc(C#N)c(NCc3ccco3)o2)cc1,i
COc1ccc2c(=O)c(N3C(=O)c4ccccc4C3=O)coc2c1,i
CC(C(=O)Nc1ccc(C#N)cc1)c1ccc([N+](=O)[O-])cc1 (centres undefined),4%
CCC(C)c1ccccc1NC(=O)COc1cccc(C)c1 (centres undefined),14%
COC(=O)c1sc(S(=O)(=O)Nc2cccc(C(F)(F)F)c2)c(C(=O)OC)c1C,i
Cc1ccc2oc(-c3ccc(C)c(NC(=O)Cc4ccc([N+](=O)[O-])cc4)c3)nc2c1,i
C1=CC2CC1CC2CN1CCN(Cc2ccco2)CC1 (centres undefined),i
Cc1cc(OCC(O)CNC(C)(C)C)cc(C)c1Cl (centres undefined),2%
COc1c(S(=O)(=O)N2CCC(Cc3ccccc3)CC2)ccc(Cl)c1Cl,i
O=C(Nc1ccc(Br)cc1F)C1CCN(S(=O)(=O)c2ccc(Cl)cc2)CC1,i
O=C(NCc1cccnc1)c1cc(C(=O)NCc2cccnc2)cc(C(=O)NCc2cccnc2)c1,i
COc1ccc(NS(=O)(=O)c2ccc(NC(=O)c3ccc(Br)cc3)cc2)nn1,1%
CCCNC(=O)c1ccc(CN(c2ccccc2)S(C)(=O)=O)cc1,i

# The results go on:
Molecule,Mtb H37Rv
O=C(Nc1ccc(N2CCN(C(=O)c3ccccc3)CC2)c(Cl)c1)c1ncn[nH]1,i
O=Cc1c(N2CCCC2)nc2ccccn2c1=O,49%
Cc1nc(NC(=O)CCCC(=O)Nc2nc(C)c(C)s2)sc1C,i
C(=C\c1ccccc1)/CSc1nnc(-c2cnccn2)n1-c1ccccc1,2%
CC(=O)Nc1ccccc1NC(=O)c1ccccc1-c1ccccc1,3%
CN1CCN(S(=O)(=O)c2ccc(N3CCOCC3)nc2)CC1,i
CCOc1ccc(S(=O)(=O)N(CC(=O)NC2CC3CCC2C3)c2ccc(C)cc2)cc1 (centres undefined),i
Cc1cc(C)nc(/N=C(\NC(=O)C(C)C)Nc2cc(Cl)ccc2Oc2ccccc2)n1,i
S=C(Nc1cccnc1)Nc1ccccc1Br,i
O=C(CSc1nc2ccccc2c(=O)n1-c1ccccc1)N1CCc2ccccc2C1,i
CCc1cccc(CC)c1NS(=O)(=O)c1ccc(C)c([N+](=O)[O-])c1,i
Cc1ccc(C)c(OCCCC(=O)Nc2ccccc2C)c1,i
Cc1ccccc1NC(=O)c1sc(NC(=O)CSc2ccccc2)c(C(=O)OC(C)C)c1C,i
O=C(CSc1nnc(-c2ccco2)n1-c1ccccc1)Nc1nccs1,i
Cc1cc(Br)cc(C)c1OCC(=O)Nc1ccc(S(N)(=O)=O)cc1,i

# More results follow.
Molecule,Mtb H37Rv
O=S(=O)(c1ccc(Br)c2ccccc12)n1nnc2ccccc21,i
Cc1ccc(NC(=O)CCOc2ccccc2)cc1,i
COc1ccc(CNCC2OCCc3ccccc32)cc1OC (centres undefined),3%
O=C(CSc1ccc(Cl)cc1)Nc1ccc(Cl)cc1C(F)(F)F,1%
O=C(O)CCn1cnc(-c2ccccc2)c1-c1ccccc1,i
CCC(C)c1ccc(NC(=S)NCCCN(C)C)cc1 (centres undefined),i
CCc1c(C)sc(NC(=O)COc2ccccc2)c1C(=O)OC,i
CCCC(=O)N1CCN(c2ccc(NC(C)=O)cc2)CC1,i
CCCC(=O)Nc1sc(C)c(-c2ccc(OC)cc2)c1C#N,2%
O=C(c1ccc(-c2ccccc2)cc1)N1CCN(S(=O)(=O)c2ccccc2)CC1,26%
COc1c(C)cc(Br)cc1C(=O)NC(=S)NC12CC3CC(CC(C3)C1)C2,1%
Cc1ccc(S(=O)(=O)N(CC(=O)NC2CCCCC2)Cc2cccc(C)c2)cc1,i
COc1ccc(/C(C)=N\NC(=O)CN2CCN(Cc3ccccc3)CC2)cc1,i
COc1ccc(OC)c(CN2CCN(Cc3cccc(C)c3)CC2)c1,0%
Cc1ccc(C2C(C#N)=C(N)N(c3cccc(Cl)c3)C3=C2C(=O)CC(C)(C)C3)s1 (centres undefined),3%

# (list continues)
Molecule,Mtb H37Rv
CCO/C=C1\C(=O)N(c2ccccc2Cl)C(=O)c2ccccc21,i
CCOC(=O)CCc1c(C)c2ccc(OCC(=O)OC(C)C)cc2oc1=O,?
CCOc1ccccc1OCCOCCOc1cccc(C)c1C,2%
CC(C)Oc1ccc(N2CC(C(=O)Nc3ccccc3C(F)(F)F)CC2=O)cc1 (centres undefined),i
CCN1CCc2c(sc(N)c2C(N)=O)C1,i
CCOc1cc(C(=O)NNC(=S)NCc2ccc(Cl)cc2)cc(OCC)c1OCC,i
CCN(CC)C/C=C/c1c(F)c(F)c(Oc2ccc(OC)cc2)c(F)c1F,i
O=C(O)C1C2CCC(O2)C1C(=O)N1CCN(C/C=C/c2ccccc2)CC1 (centres undefined),i
Cc1ccccc1N/C(=N\S(=O)(=O)c1ccccc1C)c1ccccc1,i
O=C(Nc1ccc(Br)cc1)c1cccs1,i
COc1ccc(C(=O)COC(=O)C(Cc2ccccc2)N2C(=O)C3C4C=CC(C5CC45)C3C2=O)cc1 (centres undefined),i
CCOC(=O)c1cc2ccc(OC(=O)c3ccc(Cl)c(Cl)c3)cc2oc1=O,i
CC(=O)c1cccc(NC(=O)CN(c2ccc(Oc3ccccc3)cc2)S(C)(=O)=O)c1,i
CCc1nc(SCC(=O)Nc2ccc(OC)cc2)c2c3c(sc2n1)COC(C)(C)C3,2%
c1ccc(CCSc2nnc3sc4ccccc4n23)cc1,2%

# Other compounds:
Molecule,Mtb H37Rv
Cc1nnc(SCC(=O)Nc2ccc(Cl)c(Cl)c2)c2ccccc12,i
Cc1ccc(N2C(=O)CC(Nc3ccc(N4CCOCC4)cc3)C2=O)c(C)c1 (centres undefined),i
COc1ccc(C2CC(=O)C3=C(C2)Nc2ccccc2NC3c2cc(Br)ccc2OC)cc1 (centres undefined),33%
O=C(Cc1ccccc1F)NCc1ccco1,5%
Nc1nonc1-c1nc2ccccc2n1CC(=O)Nc1cccc(Cl)c1Cl,i
COc1ccc(Cl)cc1NC(=S)N1CCN(c2ccccc2F)CC1,i
Cn1c(=O)n(C)c2cc(NS(=O)(=O)c3ccc(F)cc3)ccc21,i
Oc1ccc(Nc2nc(NCC3CCCO3)c3ccccc3n2)cc1 (centres undefined),i
O=C(CCSc1nnc2ccccn12)Nc1ccc(F)cc1,i
c1ccc(CSc2nnc(-c3cccnc3)n2Cc2ccccc2)cc1,i
C1=CCC(CN2CCN(C3CCN(Cc4ccccc4)CC3)CC2)CC1 (centres undefined),i
COc1cccc(OCCCCSc2ncccn2)c1,i
Cc1ccc(-n2sc3ccccc3c2=O)cc1,<0.1µg/mL*
O=C(Nc1cc(C(F)(F)F)ccc1N1CCOCC1)c1ccc(-c2ccccc2)cc1,i
CCc1ccc(-n2c(C)n[nH]c2=S)cc1,0%

# Going on with the list:
Molecule,Mtb H37Rv
O=S(=O)(Cc1ccc(Cl)cc1)N1CCN(Cc2ccccc2)CC1,i
CCOc1cc(C(=O)NC(=S)Nc2ccc(I)cc2C)cc(OCC)c1OCC,i
CC(=O)c1cccc(NC(=S)N2CCN(c3ccccn3)CC2)c1,i
Cc1cc(Cl)ccc1NC(=S)NCc1ccccc1,i
O=C(Nc1ccccc1)c1cccc(-c2nnc(-c3ccccc3)o2)c1,i
CCC1CCCCN1C(=O)c1cnn2cccnc12 (centres undefined),i
CN(C)S(=O)(=O)Nc1ccccc1F,i
CC(=O)CSc1nnc(-c2cccc(NC(=O)c3ccccc3C)c2)n1C,i
CN1C(=O)C(O)(CC(=O)c2cccc(N)c2)c2ccccc21 (centres undefined),i
CC(C)Oc1ccc2ccc(=O)oc2c1,i
CCn1c(=O)c2cc(S(=O)(=O)Nc3ccccc3C)ccc2n(CC)c1=O,i
Cc1cc(C)n(-c2nc(-c3ccccc3)nc3c2COC(C)(C)C3)n1,1%
O=Cc1cccn1Cc1ccc(Cl)c(Cl)c1,i
O=C(NC(Nc1ccccn1)C(Cl)(Cl)Cl)c1ccccc1 (centres undefined),i
CCOc1ccc(OCc2ccc(C(=O)O)cc2)cc1,i

# Of the compounds above, these contain a cyano group:
Molecule,Mtb H37Rv
CCCOc1ccc(-c2nc(C#N)c(NCc3ccco3)o2)cc1,i
CC(C(=O)Nc1ccc(C#N)cc1)c1ccc([N+](=O)[O-])cc1 (centres undefined),4%
CCCC(=O)Nc1sc(C)c(-c2ccc(OC)cc2)c1C#N,2%
Cc1ccc(C2C(C#N)=C(N)N(c3cccc(Cl)c3)C3=C2C(=O)CC(C)(C)C3)s1 (centres undefined),3%

# Continued.
Molecule,Mtb H37Rv
Cc1ccc(C2=C/C(=C/c3ccccn3)C(=O)O2)c(C)c1,4%
Ic1ccc2ncnc(Nc3ccccc3)c2c1,6%
CC(C)(O)C#Cc1ccc(C(=O)N2CCC(C(N)=O)(N3CCCCC3)CC2)cc1,i
O=C(Nc1ccc(S(=O)(=O)Nc2ccccn2)cc1)c1cccs1,i
O=C(O)c1ccc(COc2ccc(I)cc2)o1,i
O=C(O)CC(NC(=O)c1ccc(C#CC2(O)CCCCC2)cc1)c1ccccc1 (centres undefined),i
CCOc1c(Cl)cc(C(=O)Nc2cc(OC)ccc2OC)cc1Cl,i
COCCNC(=O)c1cc2c(n(-c3ccc(OC)cc3)c1=O)CC(C)(C)CC2=O,i
CC(C)(C)CNc1cc(N2CCOCC2)ccc1[N+](=O)[O-],i
S=C(Nc1ccccc1)N1CCN(CCc2ccccc2)CC1,i
O=C(O)c1cccc(CSc2nnc(-c3ccncc3)o2)c1,i
CSc1ccccc1NC(=O)C(C)NS(=O)(=O)c1ccc(C)cc1 (centres undefined),i

# Screens as filed in PubChem BioAssay.
